VDR inh: vitamin D3 receptor (human) inhibition; P11473; VDR-SRC2-3 peptide fluorescence polarization, 2 h; Potency, µM, without a hit: max response, negative = inhibition, most hits filed as inhibitors; 0.93% of 400,000 active; active = well fitted inhibition curve with a large enough effect; inconclusive = small, poorly fitted or top-dose-only effect, or another doubt; inactive = no such curve, though single readings can be large or run the other way; also: series mostly up to about 120 µM
Target sequence (P11473 whole entry, looked up): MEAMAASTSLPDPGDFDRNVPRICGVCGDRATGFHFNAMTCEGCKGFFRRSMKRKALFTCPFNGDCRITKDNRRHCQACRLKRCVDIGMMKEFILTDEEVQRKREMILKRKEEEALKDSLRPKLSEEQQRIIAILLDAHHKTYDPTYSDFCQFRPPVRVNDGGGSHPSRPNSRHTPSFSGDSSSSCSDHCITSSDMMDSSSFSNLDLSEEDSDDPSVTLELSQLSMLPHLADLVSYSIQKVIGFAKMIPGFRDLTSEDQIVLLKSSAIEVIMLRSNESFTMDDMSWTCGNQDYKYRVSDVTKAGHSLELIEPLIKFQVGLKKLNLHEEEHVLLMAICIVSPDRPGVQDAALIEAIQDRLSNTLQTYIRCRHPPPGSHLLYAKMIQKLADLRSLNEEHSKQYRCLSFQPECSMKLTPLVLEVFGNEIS
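FP read-out; VDR + SRC2-3 coactivator peptide; 23 nl compound by pintool; 2 h RT incubation; reagents held at 4 deg C, protected from light.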
* hit, by the source's call; ? = inconclusive; [ ] = another dose, or the depositor's remark. % is scaled to controls: 0 for no effect and ±100 for the full control effect; potency is read from the fitted curve at half-maximal effect.

| VDR inh | Structure |
| --- | --- |
| -7% | COc1ccc(S(=O)(=O)NCCC(=O)NCc2ccccc2)cc1 |
| ? | COc1ccccc1C(CCN(Cc1cccs1)C(C)=O)c1ccco1 (stereo unspecified) |
| ? | Cn1c(CC2Sc3ccccc3NC2=O)nnc1SCC(=O)c1ccc(Cl)cc1 (stereo unspecified) |
| 5% | CCC(=O)NCCc1nc2ccccc2[nH]1 |
| -20% | CC(C)c1ccc(N2C(=O)/C(=C/N(C)C)SC2=S)cc1 |
| -1% | CCn1c(CC(=O)Nc2ccc(C)cc2)nnc1SCC(=O)NCc1ccccc1 |
| -9% | Cc1ccc(C)c(S(=O)(=O)N(C(=O)c2ccncc2)c2ccc(OC(=O)c3ccncc3)cc2)c1 |
| 1% | Cn1c(=O)oc2cc(S(=O)(=O)NCC3CCCO3)ccc21 (stereo unspecified) |
| 0% | CC(CNC(=O)CC(C)(C)C)NC(=O)CC(C)(C)C (stereo unspecified) |
| 10% | CCOc1ccc(CCNC(=O)CCN2N=C(c3ccc(OC)cc3)CCC2=O)cc1OCC |
| 88%[activator] | CCOc1ccc(-c2nnn(CC(=O)c3ccc4c(c3)OCCO4)n2)cc1OCC |
| -13% | O=C(CSc1nnc(Cc2ccccc2)n1Cc1ccco1)NC12CC3CC(CC(C3)C1)C2 |
| 5% | CCOc1ccccc1C1C(C(=O)OC)=CN(C)C=C1C(=O)OC |
| -1% | CCOc1ccc(CCNc2ncnc3onc(-c4ccc(Cl)cc4)c23)cc1 |
| 1% | Cc1ccc(S(=O)(=O)NCCc2cn3ccsc3n2)c(C)c1 |
| 0% | CCCc1nc2oc3c(NCCCN(C)C)ncnc3c2c2c1CCCC2 |
| -14% | CCCCOc1ccc(CSC2=NCCN2)cc1[N+](=O)[O-] |
| -3% | Cc1cccc(Cc2nc3ccccc3[nH]2)c1 |
| 6% | Cc1ccc2nc3sc(C(=O)NCCCN(C)c4ccccc4)cc3cc2c1 |
| -6% | Cc1cc(C)cc(OCCSc2nc3ccc(NC(=O)c4cccs4)cc3s2)c1 |
| -2% | O=C(N/C(=C\c1cccnc1)C(=O)N1CCOCC1)c1cccc(Br)c1 |
| -18% | COc1ccc(C2/C=C\CN(C(=O)C3CC3)C(Cc3ccccc3)C(=O)N2Cc2ccc(F)cc2)cc1 (stereo unspecified) |
| 18% | Cc1nn(C/C(C#N)=N\O)c(C)[n+]1N |
| 1% | Cn1c(CN2CCN(CCO)CC2)c(C#N)c2ccccc21 |
| 3% | COC(=O)c1ccc(NC(=O)COC(=O)C2CC(=O)N(Cc3ccccc3)C2)cc1 (stereo unspecified) |

Following part:
| VDR inh | Structure |
| --- | --- |
| 0% | Cc1cc(=O)oc(C)c1C(=O)NCc1c(F)cc(F)cc1F |
| 7% | O=C(CSc1ccc2nnc(CCNS(=O)(=O)c3ccccc3)n2n1)Nc1ccccc1C(F)(F)F |
| -9% | CN(C(=O)CCNC(=O)Cn1cnc2ccccc2c1=O)c1ccc(Br)cc1 |
| -14% | COc1cccc(CC(=O)OCC(=O)N(C)CC(=O)Nc2ccccc2Cl)c1 |
| -1% | COc1ccc(-c2cc3nc(C)c(CCC(=O)NCc4ccccc4Cl)c(C)n3n2)c(OC)c1 |
| 0% | COc1ccc(C(NC(=O)C(C)C)c2c(O)ccc3ccccc23)cc1OC (stereo unspecified) |
| 4% | O=S(=O)(Nc1ccc2nc(-c3ccc(F)cc3)oc2c1)c1ccccc1 |
| 2% | Cc1c(NC(=O)CSc2ccccc2Cl)c(=O)n(-c2ccccc2)n1C |
| -17% | O=C(c1cnccn1)N1CCC2(CC1)CN(c1ccccc1)C2 |
| 2% | Cc1ccc(C)c(-n2nnnc2Sc2nnnn2-c2ccccc2)c1 |
| 2% | CCOc1cc(NC(=O)C2CCCCC2)c(OCC)cc1NC(=O)c1ccccn1 |
| -3% | Fc1ccc(C2N(c3ccccc3)C(=S)N3CCCN23)cc1 (stereo unspecified) |
| 11% | COC(=O)CSc1nnc(-c2ccccc2OC)o1 |
| -24% | COc1ccc(-n2nc3c(c2NC(=O)COc2cccc(OC)c2)CS(=O)(=O)C3)cc1 |
| 13% | CCOC(=O)N1CCN(CC(=O)N2CCC(C(N)=O)CC2)CC1 |
| 3% | COC(=O)c1c(NC(=O)/C=C/c2ccc(OC)cc2)sc2c1CCC2 |
| -10% | Cc1ccc(-n2nnnc2SCC(=O)NNC(=O)c2ccco2)c(C)c1 |
| -8% | Cn1c(=O)c2c([nH]c(=O)n2C)n(C)c1=O |
| 16% | Cc1cc(S(=O)(=O)N2CCN(c3c(C)cccc3C)CC2)ccc1F |
| -3% | CCOC(=O)c1sc(-c2ccccc2)cc1NC(=O)Nc1ccc([N+](=O)[O-])cc1 |
| 10% | Cc1ccc(NC(=O)c2ccccc2-c2ccccc2C(=O)O)cc1C |
| 3% | O=C(Nc1cc(Sc2ccccn2)cc([N+](=O)[O-])c1)c1ccc(Cl)cc1 |
| -17% | CC1Nc2ncnc(N3CCN(c4ccccc4)CC3)c2N(Cc2ccccc2)C1=O (stereo unspecified) |
| 1% | Cc1ccc(-n2ncc3c2CCCC3NC(=O)CCn2ccnc2C)cc1C (stereo unspecified) |
| -12% | CCn1cc(C(=O)NCCCO)c(=O)c2cc(F)c(N3CCN(C)CC3)cc21 |

Entries above that contain a cyano group, in the order listed:
| VDR inh | Structure |
| --- | --- |
| 18% | Cc1nn(C/C(C#N)=N\O)c(C)[n+]1N |
| 1% | Cn1c(CN2CCN(CCO)CC2)c(C#N)c2ccccc21 |

Back to the main list, starting seven compounds before the break.
| VDR inh | Structure |
| --- | --- |
| 16% | Cc1cc(S(=O)(=O)N2CCN(c3c(C)cccc3C)CC2)ccc1F |
| -3% | CCOC(=O)c1sc(-c2ccccc2)cc1NC(=O)Nc1ccc([N+](=O)[O-])cc1 |
| 10% | Cc1ccc(NC(=O)c2ccccc2-c2ccccc2C(=O)O)cc1C |
| 3% | O=C(Nc1cc(Sc2ccccn2)cc([N+](=O)[O-])c1)c1ccc(Cl)cc1 |
| -17% | CC1Nc2ncnc(N3CCN(c4ccccc4)CC3)c2N(Cc2ccccc2)C1=O (stereo unspecified) |
| 1% | Cc1ccc(-n2ncc3c2CCCC3NC(=O)CCn2ccnc2C)cc1C (stereo unspecified) |
| -12% | CCn1cc(C(=O)NCCCO)c(=O)c2cc(F)c(N3CCN(C)CC3)cc21 |
| 16% | Cc1cc(NC(=O)CSc2nc3cc(C)c(C)cc3cc2C)no1 |
| -22% | CC1CCN(C(=O)c2ncn(C)c2C(=O)N2CCC(C)CC2)CC1 |
| 13% | CC(C)Cc1ccc(C(C)C(=O)OCC(=O)c2c[nH]c3ccccc23)cc1 (stereo unspecified) |
| 12% | O=C(CSc1ccc(-c2cccs2)nn1)Nc1ccccc1C(F)(F)F |
| 2% | O=C(CSCCOc1ccccc1)NCc1ccncc1 |
| ? | CCOC(=O)N1CCN(C(=O)CSCc2ccccc2)CC1 |
| 6% | O=C(NCCc1ccc(Cl)cc1)c1nnc(Cc2ccc(F)cc2)o1 |
| -3% | CCCCOC(=O)NS(=O)(=O)c1sc(CC(C)C)cc1-c1ccc(Cn2c(CC)nc3c(C)cc(C)nc32)cc1 |
| -12% | CCOc1ccccc1CN1CCN(Cc2ccc3cc(F)ccc3n2)CC1CCO (stereo unspecified) |
| 8% | Cc1ccc(NC(=O)CSc2n[nH]c(C)c2[N+](=O)[O-])cc1 |
| 1% | O=C(NCCN1CCOCC1)c1ccc(=O)n(Cc2ccc(Cl)cc2)c1 |
| -18% | COc1cc(OC)c2c(-c3ccccc3)cc(=O)oc2c1C(CC(=O)N1CCCC1)c1ccc(N(C)C)cc1 (stereo unspecified) |
| 17% | O=C(CSc1ncn(-c2ccccc2)n1)Nc1nc(-c2ccccc2)cs1 |
| 17% | COc1cc(C(=O)NCC2CCCO2)ccc1OCc1c(C)noc1C (stereo unspecified) |
| -7% | NC(=O)c1ccc(Cn2c(C(=O)c3ccc(Cl)cc3)c3ccccc3[n+]2[O-])cc1 |
| 19% | N[C@@H](C(=O)O)c1ccc(P(=O)(O)O)cc1 |
| -22% | CCCCN(C(=O)CSc1nnc(-c2ccco2)o1)c1c(N)n(Cc2ccccc2)c(=O)[nH]c1=O |
| -4% | Cc1ccc(NC(=O)CCNS(=O)(=O)c2ccccc2)c(C(=O)c2ccccc2)c1 |
| -8% | O=C(OCc1nnc(-c2ccc(Cl)cc2)o1)C12CC3CC(CC(O)(C3)C1)C2 |
| -8% | CCN(Cc1ccc(OC)c(F)c1)C(=O)CCl |
| 10% | CN1CCc2nc(NC(=O)c3cccc(OC(F)F)c3)sc2C1 |
| -3% | Cc1c(C(=O)O)nn(-c2cccc(C(F)(F)F)c2)c(=O)c1C#N |
| 20% | CC1CC(C)CN(C(=O)c2ccc(S(=O)(=O)N3CCCCC3)cc2)C1 (stereo unspecified) |
| -3% | CN(C(=O)c1cccc(N2C(=O)C3CC=CCC3C2=O)c1)C1CCCCC1 (stereo unspecified) |
| 115%[activator] | CCOC(=O)c1c(S(=O)(=O)NCC(=O)Nc2ccc(C)cc2)c(C)n(C)c1C |

The results go on.
| VDR inh | Structure |
| --- | --- |
| -9% | COc1cccc(-c2nc(CS(=O)CC(=O)NCc3ccccc3)c(C)o2)c1 (stereo unspecified) |
| 50µM* | N#C/C(=C\c1c(Oc2ccc(Cl)cc2)nc2ccccn2c1=O)C(=O)NC1CCS(=O)(=O)C1 (stereo unspecified) |
| ? | COc1ccc(CNCCS(=O)(=O)NN2CCOCC2)cc1 |
| 6% | O=S(=O)(c1ccc2nc(Nc3ccc(F)cc3)ccc2c1)N1CCCC1 |
| -8% | CC(CC(=O)Nc1ccc(S(=O)(=O)Nc2ncccn2)cc1)c1ccccc1 (stereo unspecified) |
| -11% | O=C(Nc1ccc(Cl)cn1)c1cc2ccccc2o1 |
| -7% | CCOC(=O)c1cnc(-n2nc(C)cc2C)nc1NCc1ccccc1 |
| -8% | CCOc1cc(N2CCOCC2)c(OCC)cc1NC(=O)c1ccc(F)c(S(=O)(=O)N2CCOCC2)c1 |
| ? | COc1cc(/C=C/CN2CCN(Cc3ccc(C)o3)C(CCO)C2)ccc1O (stereo unspecified) |
| 1% | CN(C(=O)CCc1nc2ccccc2s1)c1ccccc1 |
| -17% | COc1ccc(N/C=C2\C(=O)CCc3c2oc2cc(Cl)c(O)c(Cl)c32)cc1 |
| -12% | Cc1ccc(-c2c(C(=O)O)c3ccccc3[nH]c2=O)cc1 |
| -1% | c1ccc(NC2=Nc3ccccc3CC2)cc1 |
| -4% | CC(C)OC(=O)/C(=C\C=C\c1ccccc1)NC(=O)c1ccccc1 |
| -11% | O=C(O)C1CCCN1S(=O)(=O)c1cc(Cl)ccc1Cl (stereo unspecified) |
| -4% | COc1cc(/C=N/NC(=O)c2ccc(CSc3nncn3C)cc2)cc(OC)c1O |
| 5% | O=C(CN1CCCC1)N1CCCc2ccccc21 |
| 1% | COc1cccc(CNC(=O)c2cccc(S(=O)(=O)N3CCN(C)CC3)c2)c1 |
| ? | Cc1ccc(S(=O)(=O)Nc2ccc(C(N)=O)cc2)cc1[N+](=O)[O-] |
| 7% | Cc1cccc(NC(=O)/C(C#N)=C/c2ccc[nH]2)c1C |
| -10% | COc1ccc(-c2cc3nc(C)c(CCC(=O)N4CCN(c5ccc(F)cc5)CC4)c(C)n3n2)c(OC)c1 |
| -10% | O=C(NCc1ccco1)c1cccn2c(=O)c3c4c(sc3nc12)CCCC4 |
| 4% | CCOc1ccccc1N(CC(=O)NC1CCCCC1)C(=O)CCC(=O)Nc1cc(C)ccn1 |
| -3% | COc1ccc(/C=C/C(=O)Nc2ccccc2C(=O)O)cc1 |
| 5% | O=C(NCCc1c[nH]c2ccccc12)C1CCC(Cn2c(=S)[nH]c3ccccc3c2=O)CC1 (stereo unspecified) |

An excerpt from above in order of molecular weight, descending.
| VDR inh | Structure |
| --- | --- |
| ? | COc1cc(/C=C/CN2CCN(Cc3ccc(C)o3)C(CCO)C2)ccc1O (stereo unspecified) |
| 1% | CN(C(=O)CCc1nc2ccccc2s1)c1ccccc1 |
| 5% | O=C(CN1CCCC1)N1CCCc2ccccc21 |

Next records follow.
| VDR inh | Structure |
| --- | --- |
| -15% | CC(=NC(C)C)C1=C(O)CCC1=O |
| -14% | O=C(O)CCSC(=S)N1CCOCC1 |
| -16% | CC(=O)Oc1cc2oc(=O)c3c(c2cc1Cl)CCC3 |
| 15% | Cc1ccc(N(CC(=O)N/N=C/c2ccc(OC3CSC3)cc2)S(=O)(=O)c2ccccc2)cc1 |
| 6% | Cc1ccc(CNC(=O)CCSCc2cnn(-c3ccccc3)c2-n2cccc2)cc1 |
| -9% | Cc1ccnc(N2CCC(C(=O)Nc3ccc(Oc4ccccc4)cc3)CC2)n1 |
| 8% | CCOc1cc(CNCCCN2CCOCC2)cc(Cl)c1OCC(=O)NC(C)(C)C |
| -24% | CCOC(=O)C1CCCN(c2c(C(=O)c3ccccc3)cnc3ccc(OC)cc23)C1 (stereo unspecified) |
| 20% | CCCn1c(=O)c2sccc2n2c(CCCC(=O)Nc3ccccc3OCC)nnc12 |
| 5% | CCOC(=O)c1oc2ccccc2c1NC(=O)COc1cccc(OC)c1 |
| 18% | CCOC(=O)c1ccccc1NC(=O)COC(=O)C(CCSC)NC(=O)COc1ccccc1 (stereo unspecified) |
| -15% | O=C(Oc1ccc(-c2cnc3ccccc3n2)cc1)c1ccc(Br)o1 |
| -5% | CCCCNc1ccc(S(=O)(=O)c2cccc([N+](=O)[O-])c2)cc1[N+](=O)[O-] |
| 13% | O=C(O)c1cc(Cl)c(Cl)cc1C(=O)N1CCCC1 |
| -15% | CCOc1ccc(-c2c(C#N)c(N)nc3sc(C(=O)c4ccccc4)c(N)c23)cc1 |
| -5% | CCn1c(=N)n(CC(O)c2ccco2)c2ccccc21 (stereo unspecified) |
| 3% | COc1ccc(N2CCN(C(=O)c3nn(C)c4c3CSc3ccccc3-4)CC2)cc1 |
| -12% | Cn1nccc1C(=O)N1CCN(c2ccc(F)cc2)CC1 |
| -20% | Cc1ccc(S(=O)(=O)c2cn(CC(=O)Nc3ccc4c(c3)OCO4)c3ccc(F)cc3c2=O)cc1 |
| 1% | O=C(CC1N=C2c3ccccc3N=C(SCC(=O)Nc3ccccc3F)N2C1=O)NCc1cccs1 (stereo unspecified) |

Not all compounds are listed; count on the stated rates, not on these rows.
